Screening results deposited in PubChem by National Center for Advancing Translational Sciences (NCATS).
LASV entry inh: blocks Lassa virus binding or cell entry | 18,000 compounds, 4.1% hits | Lassa virus pseudotyped entry inhibition, cell-based qHTS; control for the full effect not named in the record; many of its hits are not listed in these tables | Potency, µM (top dose mostly 49.2 µM), without a hit: at the highest dose activity change, negative = inhibition, actives largely listed as inhibitors | AID 720533; active = well fitted inhibition curve with a large enough effect; inconclusive = small, poorly fitted or top-dose-only effect; inactive = no such curve, though single readings can be large or run the other way; tested in HEK293 cells; further: luciferase read-out
MARV entry inh: inhibitors of Marburg virus binding or entry into cells; Marburg virus pseudotype entry/binding inhibition, cell-based; control for the full effect not named in the record; many of its hits are not listed in these tables; Potency, µM (doses to about 49.2 µM), inactives show at the top dose activity change, negative = inhibition, hits mostly inhibitors; 18,000 compounds, 6.5% hits; AID 720532; active means well fitted inhibition curve with a large enough effect; inconclusive means small, poorly fitted or top-dose-only effect; inactive means no such curve, though single readings can be large or run the other way; tested in HEK293 cells; further: luciferase read-out
An asterisk follows results filed as active; ? = inconclusive; nt = not tested or not shown; & = joins results of further samples; [ ] = remark or other dose. On the % scale 0 is the no-effect control and ±100 the full control effect; potency means the concentration at half of the fitted maximal effect. The list is partial; rates above refer to the full screens.

SMILES	LASV entry inh	MARV entry inh
OC1(c2ccc3c(c2)CN(Cc2ccco2)CCO3)CCN(c2ccccc2F)CC1	-26%	0%
COc1ccc([C@]23Cc4ccccc4[C@H](O2)c2c(c4ccc(OC)cc4oc2=O)O3)cc1	nt	-10%[8.59 µM]
COP(=O)(OC)OC(c1ccc(Cl)cc1)P(=O)(OC)OC (configuration not stated)	-12%	-2%
CC12C=C(C=Cc3ccc(Br)cc3)C(C)(C1)C(c1ccc(Br)cc1)CC2=O (configuration not stated)	nt	-26%[8.59 µM]
CCc1cc2c(nc1CC)CCN(CCC(C)=NOC[C@@H](O)[C@H]1O[C@@H]3OC(C)(C)O[C@H]3[C@@H]1O)C2	6%[8.59 µM]	-6%[8.59 µM]
CCCCCCCCCCCCCCCCOCC(CO)OC (configuration not stated)	0%&2%	15%&-8%
CCC(Sc1ccccc1)C(=O)OC1CC2CCC(C1)N2C (configuration not stated)	-12%	8.9µM*
CCC1C(=O)NCCN1Cc1ccc2c(c1)CN(Cc1cccc(OC)c1OC)CCO2 (configuration not stated)	2%	0%
CC(C)=NO[C@@H](C)CN1CCCc2nc(C)c(C)cc21	11%[8.59 µM]	-14%[8.59 µM]
CCCCCC/C=C\CCCCCCCc1cccc(O)c1C(=O)O	-15%	8%
COC(=O)Nc1nc2ccc(Oc3ccc(NC(=O)Nc4cccc(Cl)c4)cc3)cc2[nH]1	?	5µM*
Cc1ncc2c(c1CNC(=O)c1ccc3c(c1)OCO3)CCN(C(=O)c1cc3ccccc3n1C)C2	-7%	-18%
Cc1oc(-c2ccccc2NC(=O)C2CCC2)nc1CNC(=O)c1ccc(C#CC(C)(C)O)cc1	?	?
Cc1ccc2c(CN3CCN(c4ccc(Cl)c(Cl)c4)CC3)cc(=O)oc2c1	nt	?
CC/C=C\C/C=C\C/C=C\C/C=C\C/C=C\C/C=C\CCC(=O)NCCO	-1%	17%
Cc1cnc(C)c(-c2cc(F)c3c(c2)CC(CNC(=O)c2cccc(Cn4cccn4)c2)O3)n1 (configuration not stated)	-4%	10%
COc1cccc(CNC(=O)c2c(OC)cc(=O)n3c2CCN(C(=O)C2CC24CCCC4)CC3)c1 (configuration not stated)	3%	-11%
COc1cc(=O)n2c(c1C(=O)NCc1ccc3c(c1)OCO3)CCN(C(=O)c1ccccc1F)CC2	-5%	10%
CC1C(=O)N(Cc2cn(Cc3ccco3)nn2)CCS(=O)(=O)N1Cc1ccc(-c2ccncc2)cc1 (configuration not stated)	?	4%
COC(=O)CCCC1=CC2=CC(=O)C(C)(OC(=O)c3cccs3)C(=O)C2=CN1CC(C)C (configuration not stated)	-4%[8.59 µM]	-3%[8.59 µM]
C[C@@H]1CC[C@@]2(OC1)OC1CC3C4CC=C5CC(O)CCC5(C)C4CCC3(C)C1[C@@H]2C (some centres not stated)	-7%	1%
CC(C)C[C@H](NC(=O)[C@H](CCCCN)NC(=O)[C@H](CCC(N)=O)NC(=O)[C@H](Cc1cnc[nH]1)NC(=O)[C@H](Cc1cnc[nH]1)NC(=O)[C@@H](N)C(C)C)C(=O)N[C@H](C(=O)N[C@@H](Cc1ccccc1)C(=O)N[C@@H](Cc1ccccc1)C(=O)N[C@@H](C)C(=O)N[C@@H](CCC(=O)O)C(=O)N[C@@H](CC(=O)O)C(=O)N[C@H](C(=O)NCC(=O)N[C@@H](CO)C(=O)N[C@@H](CC(N)=O)C(=O)N[C@@H](CCCCN)C(=O)O)C(C)C)C(C)C	0%	-1%
CC(C)NC[C@@H](O)COc1ccc(COCCOC(C)C)cc1	-14%	-27%
Cc1cccc(C2=NN(c3ccccc3)[C@@H](C(=O)N3CCOC3=O)[C@@H]2c2ccc(F)cc2)c1	-10%	-4%

Looked up by structure from the list above (two):
SMILES	LASV entry inh	MARV entry inh
COC(=O)CCCC1=CC2=CC(=O)C(C)(OC(=O)c3cccs3)C(=O)C2=CN1CC(C)C (configuration not stated)	-4%[8.59 µM]	-3%[8.59 µM]
Cc1cccc(C2=NN(c3ccccc3)[C@@H](C(=O)N3CCOC3=O)[C@@H]2c2ccc(F)cc2)c1	-10%	-4%

(listing goes on)
SMILES	LASV entry inh	MARV entry inh
O=C(Nc1ccc(O)c2c(=O)cc(-c3ccccc3Cl)oc12)c1ccccc1Cl	5%	15%
C=CC[C@@H]1C=C[C@H](ON=C(C)CCN2CCCc3nc(C)c(C)cc32)[C@H](CO)O1	4%[8.59 µM]	23%[8.59 µM]
COc1ccc(NC(=O)OCCN2CCN(Cc3ccccc3)CCC2=O)cc1	5%	22%
C[C@H](N)C(=O)N[C@@H](C)P(=O)(O)O	0%	0%
CCS(=O)(=O)Nc1cc(C(=O)N[C@H]2CCCCNC2=O)c2c(c1)nc(-c1ccccc1)n2C	-23%	-7%
CC(N)=NCc1cccc(CN)c1	-3%&-2%&-4%	-1%&12%&12%
C[C@@](O)(/C=C/[C@H]1CC=CC(=O)O1)[C@@H](C[C@@H](O)\C=C/C=C\C=C\CO)OP(=O)(O)O	14%[8.59 µM]	4%[8.59 µM]
Ic1c(C2=CCCCC2)[se]c2ccccc12	-23%	?
C[C@H]1CC[C@H]2C(=O)N(Cc3ccc(Cl)cc3)C[C@H](O)CN2[C@H]1c1ccc(Br)cc1	10%[8.59 µM]	-2%[8.59 µM]
COC(=O)C1CCCCN1Cc1nc(N2CCCN(C(C)=O)CC2)c2ccccc2n1 (configuration not stated)	4%	-1%
O=C1CS(=O)(=O)N(Cc2ccccc2F)c2ccc(Br)cc21	20%	6%
Cc1oc(-c2ccccc2NC(=O)c2ccsc2)nc1CN(C)Cc1ccc2c(c1)CCCN2C	-10%	-15%
COc1ccc(C(=O)N2CCCC(c3nc(SCc4ccccn4)ncc3C)C2)cc1F (configuration not stated)	-27%	?
CNC(=O)O/N=C(/C)SC	3%	2%
Nc1c([N+](=O)[O-])ccc(Oc2ccccc2)c1Cl	6%	0%
CS(=O)(=O)CCNCc1nc(-c2ccc3ncnc(Nc4ccc(OCc5cccc(C(F)(F)F)c5)cc4)c3c2)cs1	-18%	-16%
CNC(=O)OCc1cccc(COC(=O)NC)n1	0%	-5%
CC[C@H](C)[C@H](NC(=O)CNC(=O)[C@H](CCCNC(=N)N)NC(=O)[C@H](CO)NC(=O)[C@H](C)NC(=O)[C@H](Cc1ccc(O)cc1)NC(=O)[C@H](Cc1c[nH]c2ccccc12)NC(=O)[C@H](C)NC(=O)[C@@H]1CCCN1C(=O)[C@H](CC(N)=O)NC(=O)[C@@H](NC(=O)[C@H](CC(=O)O)NC(=O)[C@@H]1CCCN1C(=O)[C@@H](N)[C@@H](C)O)[C@@H](C)CC)C(=O)N[C@@H](CCCNC(=N)N)C(=O)N1CCC[C@H]1C(=O)N[C@H](C(=O)NCC(=O)N[C@@H](CCCNC(=N)N)C(=O)N[C@@H](Cc1ccccc1)C(N)=O)C(C)C	-1%	-9%
NCCNS(=O)(=O)c1cccc2cnccc12	?	?
O=C1C=CC(=C(c2ccc(O)cc2)c2ccc(O)cc2)C=C1	8.9µM*	13µM*
CCN(CC)C(=O)N[C@H]1C=C2c3cccc4[nH]cc(c34)C[C@@H]2N(C)C1	-16%[17.8 µM]	29%[17.8 µM]
Cc1cn2c(=O)c3ccccc3nc2n2c(=O)c3ccccc3nc12	5%	-13%
CCCCCCN1C[C@@H](n2cc(C3CC3)nn2)[C@H](O)C[C@H]1c1ccc(OC)cc1	nt	-20%
COc1ccccc1N1CCN(CCn2c(=O)c3c(c4ccccc4n3C)n(C)c2=O)CC1	-2%&0%	9%&-10%
CC(C)=CCCC(C)=CCN1C(=O)[C@]2(O[C@H](C)CC3=CCCC32)c2c(Br)cccc21 (some centres not stated)	-12%[8.59 µM]	10%[8.59 µM]
O=C1C(=O)N(Cc2ccc(Cl)c(Cl)c2)c2ccccc21	?	8%
CC(CCN1CCCCc2nc(C)c(C)cc21)=NOC[C@@H](O)[C@H]1O[C@@H]2OC(C)(C)O[C@H]2[C@@H]1O	nt	18%[8.59 µM]
CCON=O	10µM*	-18%
O=S1(=O)CC(N2CCCC2)CN1CCc1ccccc1 (configuration not stated)	13%	15%
C[C@]12CCC3C(CC[C@H]4C[C@H](O)CC[C@]34C)[C@@H]1CC[C@@H]2C(=O)CO (some centres not stated)	-14%	15%
CN(C)Cc1ccccc1-c1cncnc1NCc1cccs1	7%	-17%
CCC(O)CNC(=O)c1cnn(-c2ncc3c(n2)-c2ccccc2CCC3)c1C1CC1 (configuration not stated)	45%[activator]	18%
CC(=O)OC[C@H]1O[C@H](c2ccc(C(C)=O)cc2)C=C[C@H]1OC(C)=O	-12%[8.59 µM]	2%[8.59 µM]
Nn1cc(Br)c(=O)[nH]c1=O	-23%	-15%
COc1ccccc1-c1ccc(C(=O)NCCN2CCOCC2)c(N2CCN(c3ccccc3F)CC2)n1	25%	-6%
CC(C)=CCC1=C(O)c2ccccc2C(=O)C1=O	?	5µM*

Structural class: those above with sulfur.
SMILES	LASV entry inh	MARV entry inh
CCC(Sc1ccccc1)C(=O)OC1CC2CCC(C1)N2C (configuration not stated)	-12%	8.9µM*
CC1C(=O)N(Cc2cn(Cc3ccco3)nn2)CCS(=O)(=O)N1Cc1ccc(-c2ccncc2)cc1 (configuration not stated)	?	4%
COC(=O)CCCC1=CC2=CC(=O)C(C)(OC(=O)c3cccs3)C(=O)C2=CN1CC(C)C (configuration not stated)	-4%[8.59 µM]	-3%[8.59 µM]
CCS(=O)(=O)Nc1cc(C(=O)N[C@H]2CCCCNC2=O)c2c(c1)nc(-c1ccccc1)n2C	-23%	-7%
O=C1CS(=O)(=O)N(Cc2ccccc2F)c2ccc(Br)cc21	20%	6%
Cc1oc(-c2ccccc2NC(=O)c2ccsc2)nc1CN(C)Cc1ccc2c(c1)CCCN2C	-10%	-15%
COc1ccc(C(=O)N2CCCC(c3nc(SCc4ccccn4)ncc3C)C2)cc1F (configuration not stated)	-27%	?
CNC(=O)O/N=C(/C)SC	3%	2%
CS(=O)(=O)CCNCc1nc(-c2ccc3ncnc(Nc4ccc(OCc5cccc(C(F)(F)F)c5)cc4)c3c2)cs1	-18%	-16%
NCCNS(=O)(=O)c1cccc2cnccc12	?	?
O=S1(=O)CC(N2CCCC2)CN1CCc1ccccc1 (configuration not stated)	13%	15%
CN(C)Cc1ccccc1-c1cncnc1NCc1cccs1	7%	-17%

(continued)
SMILES	LASV entry inh	MARV entry inh
CC(N)C(O)c1cccc(O)c1 (configuration not stated)	0%	-23%
O=C1CN=C(c2ccccc2)c2cc(Cl)ccc2N1CC1CC1	?	8%
c1ccc2nc(C3=NCCN3)ccc2c1	-19%	2%
CCOC(=O)CN1C(=O)C2(CC(C)=C[C@@H](C)O2)c2c(Br)cccc21 (some centres not stated)	32%[activator][8.59 µM]	3%[8.59 µM]
CCCCc1nc2c(c3c1C[C@H](C)OC3)CN(C(=O)c1ccco1)CC2	6%[8.59 µM]	3%[8.59 µM]
COc1nccnc1NS(=O)(=O)c1ccc(N)cc1	?	15%
COC(=O)[C@@H]1CCCN1C(=O)c1c(OC)cc(=O)n2c1CCN(Cc1ccc3c(c1)CCO3)CC2	0%	5%
C#C[C@]1(O)CC[C@H]2[C@H]3CCc4cc(O)ccc4[C@@H]3CC[C@@]21C	?	-7%
CO[C@@H]1c2ccccc2[C@H]2C(C(=O)O)c3c(n(C)c4ccccc34)[C@H]2[C@H]1C (some centres not stated)	-22%[8.59 µM]	29%[8.59 µM]
CCCCCCCCCCCCC/C=C/C(O)C(COP(=O)(O)OCCN)NC(=O)CCCCCCCCCCCCCCCCC (configuration not stated)	-9%	5%
CC(=O)OC[C@@]1(O)C[C@@]23CC[C@@H]4c5ccoc5CC[C@@]4(C)[C@@H]2CCC1C3	4%	15%
COC(=O)C1=C(C(=O)OC)[C@@H]2N(C)c3ccccc3[C@@]23CCC(=O)N(CC(C)C)C3=N1	1%[8.59 µM]	8%[8.59 µM]
COc1ccccc1[C@@H]1C(c2ccc(F)cc2)=NN(c2ccc(Br)cc2)[C@H]1C(=O)N1CCOC1=O	-1%	37%[activator]
CC(C)N(C(=O)CCl)c1ccccc1	?	?
COc1cc(OC)c2c(-c3cccc(-c4ccc(OC(F)(F)F)cc4)c3)cc(=O)oc2c1	-15%	-10%
CCC1(c2ccccc2)C(=O)NC(=O)N(C(=O)c2ccccc2)C1=O (configuration not stated)	-26%	21%
COc1cc2c(c(OC)c1OC)-c1ccc(O)c(=O)cc1[C@H](N)CC2	-2%[17.8 µM]	11%[17.8 µM]
CC1CCN(CCCC(=O)c2ccc(F)cc2)CC1	-3%	-19%
COC(=O)C1=C(C)[C@@H](O)[C@@H](C)[C@](C)(c2cc(OC)c(C)c(OC)c2COc2ccccc2)O1	-1%	26%
CCOC(=O)c1c[nH]c2cc(OCC(C)C)c(OCC(C)C)cc2c1=O	-4%	26%
FC(F)(F)c1ccc(-c2nn3ncccc3c2-c2ccnc(Nc3ccc4c(c3)OCCO4)n2)cc1	nt	-23%
O=C1C(c2ccccn2)=[N+]([O-])c2ccccc21	1%	18%
CCCS(=O)(=O)NCc1c(C)ncc2c1CCN(C(=O)c1cccc(-c3ccccc3F)c1)C2	?	-26%
COC(=O)C1=C(C)N(Cc2ccco2)C(=O)NC1c1ccco1 (configuration not stated)	-26%[8.59 µM]	0%[8.59 µM]
COc1cc2c(cc1OC)C(c1ccc(N)cc1)=NNC(=O)C2	?	?
Cc1cnc(-n2ncc(C(=O)NCC(C)(C)N3CCOCC3)c2C)nc1-c1cccs1	-14%	-3%
CCCCCCCCCCCCCC(=O)O[C@H](CC(=O)O)C[N+](C)(C)C	-17%	14%
Cc1cccc(CNc2nc(-c3c(C)noc3C)nc3ccccc23)c1	-23%	-26%
O=S(=O)(O)NC1CCCCC1	4%	5%
